High-throughput results: PubChem BioAssay, National Center for Advancing Translational Sciences (NCATS)
VACV mCherry inh: inhibitors of vaccinia virus infection (mCherry reporter signal). Vaccinia virus mCherry reporter infection, fluorescence; about a quarter of the inactives have no number. Potency, µM (titrated, usually from 36.5 µM), for inactives: top-dose activity change, negative = inhibition, hits mostly inhibitors. 310,000 tested, 0.63% active. AID 720579; active = well fitted inhibition curve with a large enough effect; inconclusive = small, poorly fitted or top-dose-only effect; inactive = no such curve, though single readings can be large or run the other way; tested in A549 cells; further: nearly all actives have a fitted effect of over 35% in size; inactives centre near -10
VACV Venus inh: vaccinia inhibition (Venus reporter) | Vaccinia virus Venus reporter expression, fluorescence | 330,000 tested, 0.46% active | Potency, µM (series often up to 36.5 µM), without a hit: at the highest dose activity change, negative = inhibition, actives largely listed as inhibitors; active means well fitted inhibition curve with a large enough effect; inconclusive means small, poorly fitted or top-dose-only effect; inactive means no such curve, though single readings can be large or run the other way; tested in A549 cells; further: nearly all actives have a fitted effect of over 30% in size; inactives centre near -10
* hit, by the source's call; i = inactive; ? = inconclusive; . = no result given; [ ] = another dose, or the depositor's remark. On the % scale 0 is the no-effect control and ±100 the full control effect; potency means the concentration at half of the fitted maximal effect.

Compound,VACV mCherry inh,VACV Venus inh
COc1ccc(Nc2cc(C(=O)NCc3ccccc3)c3ccccc3n2)cc1OC,8.0%,0.6%
O=C1COc2ccc3ccccc3c21,-2.9%,0.7%
Cn1c(NC2CCCCC2)cc(=O)n(C)c1=O,-2.7%,-10.2%
CC1(C)OC(c2ccccc2)=C/C(=C/C=C2C(=O)c3ccccc3C2=O)O1,i,-7.2%
COc1ccc(/C=N/NC(=S)Nc2cccc(C(=O)O)c2)cc1OC,i,-10.9%
C/C(=N\Nc1nccnc1Cl)c1ccc([N+](=O)[O-])cc1,-1.2%[1.46 µM],3.4%
CCCOC(=O)Nc1ccccc1C(N)=O,.,-14.4%
COc1ccccc1C(=O)N1CCN(C(=O)COc2cccc(C)c2)CC1,-13.7%[1.46 µM],-15.3%
O=S(=O)(NCCc1csc2nc(-c3ccccc3)nn12)c1ccc(Cl)s1,-8.7%,-15.8%
Cc1ccc(CNC(=O)c2cc(S(=O)(=O)N3CCCCCC3)cn2C)cc1,-8.6%,-2.4%
COc1ccc(OC(C)C(=O)NCCc2nc3ccccc3[nH]2)cc1 (configuration not stated),i,-15.1%
O=c1[nH]c(/C=C/c2cccnc2)c([N+](=O)[O-])c(=O)[nH]1,5.0%,3.7%
CC1(Oc2cccc(C#N)c2)CCN(Cc2ccc(-c3ccccn3)cc2)C1 (configuration not stated),i,-2.2%
Cc1cc(NC(=O)CSc2nc(-c3ccccc3)cs2)no1,.,?
COc1ccc(C(=O)N(C)Cc2ccc(C)o2)cc1OC1CCN(C(C)=O)CC1,-10.5%,-21.8%
O=[N+]([O-])c1ccccc1-c1cc(-c2ccccc2)cc(-c2ccccc2)[n+]1Cc1ccccc1Cl,-11.3%,?
CSC[C@H](NC(=O)Cc1c(C)c2cc3c(C)c(C)oc3cc2oc1=O)C(=O)N[C@@H](Cc1ccccc1)C(=O)O,1.9%,-1.0%
CCSc1nc(=S)n(Cc2ccccc2)c(C)c1C(C)=O,-15.0%,-12.0%
CCOc1ccccc1NC(=O)CSc1cc(=O)n(CC)c2ccccc12,-14.6%[7.34 µM],-8.1%[7.34 µM]
O=c1oc2c3c(ccc2c2ccccc12)OCN(Cc1ccccc1Cl)C3,-8.0%,-10.4%
COc1cccc(CN2C(=O)NC(C)(C3CCN(Cc4cnn(C)c4C)CC3)C2=O)c1OC (configuration not stated),i,-10.1%
CC(=O)Nc1cc2nc(C)n(Cc3ccc([N+](=O)[O-])cc3)c2nc1C,-16.7%,-3.8%
O=C(CS(=O)(=O)c1ccccc1)NCc1ccccc1,-14.5%,0.3%
Cc1ccc(CS(=O)Cc2ccc(C(=O)N3CCN(c4cccc(C)c4C)CC3)o2)cc1 (configuration not stated),-1.1%,?
Cc1ccc(C)c(Cn2c(=O)n(-c3ccc(Cl)cc3)c(=O)c3c(C)c(C)sc32)c1,-3.6%,2.9%

Entries listed so far with an aryl methoxy group, in the order listed:
Compound,VACV mCherry inh,VACV Venus inh
COc1ccc(Nc2cc(C(=O)NCc3ccccc3)c3ccccc3n2)cc1OC,8.0%,0.6%
COc1ccc(/C=N/NC(=S)Nc2cccc(C(=O)O)c2)cc1OC,i,-10.9%
COc1ccccc1C(=O)N1CCN(C(=O)COc2cccc(C)c2)CC1,-13.7%[1.46 µM],-15.3%
COc1ccc(OC(C)C(=O)NCCc2nc3ccccc3[nH]2)cc1 (configuration not stated),i,-15.1%
COc1ccc(C(=O)N(C)Cc2ccc(C)o2)cc1OC1CCN(C(C)=O)CC1,-10.5%,-21.8%
COc1cccc(CN2C(=O)NC(C)(C3CCN(Cc4cnn(C)c4C)CC3)C2=O)c1OC (configuration not stated),i,-10.1%

Later entries.
Compound,VACV mCherry inh,VACV Venus inh
COc1ccc(NC(=O)c2cn3c4c(ccc(Cl)c4c2=O)OC(C)C3)cc1OC (configuration not stated),-14.7%,-10.9%
CCOc1ccc(NS(=O)(=O)c2cccc(C(=O)NCC3(N(C)C)CCCCC3)c2)cc1,i,-20.6%
COC(=O)c1cc(COC(=O)COc2ccc(C)c(C)c2)oc1C,-8.8%,1.6%
Fc1ccc(NCc2nnc3n2CCCCC3)cc1Cl,-4.9%,-2.9%
CCC(CC)C(=O)Nc1c2c(nn1-c1ccc(F)cc1)CS(=O)(=O)C2,-10.6%,-14.0%
COc1cccc(C(=O)Nc2nc3ccccc3[nH]2)c1,-13.7%[1.46 µM],-19.7%
COc1ccc(CCNC(=O)CCCCn2c(=O)c3ccccc3n(Cc3ccccc3)c2=O)cc1OC,-14.5%,-3.0%
Cc1cccc(CN2CCC(CNC(=O)C3CCCN(S(=O)(=O)c4cnc[nH]4)C3)CC2)c1 (configuration not stated),0.5%,1.3%
O=C(NCc1ccccc1)Nc1nnc([C@@H]2C[C@H](O)[C@@H](CO)O2)s1,i,2.3%
O=C(Nc1ccc(Br)cc1)c1cccc(OC(=S)N2CCOCC2)c1,i,-14.8%
O=C(CNC(=O)c1ccco1)N/N=C/c1cccs1,-10.2%,-3.2%
CCc1nn(CC(=O)NCCCN(C)C2CCCCC2)c(=O)c2cc3occc3n12,i,-9.3%
O=C(O)/C=C/C(=O)NCCC1=CCCCC1,-27.4%,-6.7%
COC(CNC(=O)c1ccc2c(c1)nc(C)n2-c1cccc(F)c1)OC,i,-3.4%
Cc1ccc(NC(=O)CCC(=O)NNC(=O)c2ccccc2[N+](=O)[O-])c(C)c1,i,-8.2%
CC(=O)c1c(O)ccc2c(-c3ccccc3)cc(=O)oc12,i,-10.3%
COC(=O)Cn1c(=NC(=O)c2sc3ccccc3c2Cl)sc2cc(S(N)(=O)=O)ccc21,-5.9%,-12.0%
Cc1cc(F)ccc1S(=O)(=O)N1CCC2(CC1)OCCN2S(=O)(=O)c1cccs1,-13.3%,-8.3%
Cc1ccc([C@H]2C[C@@H](O)[C@H](n3cc(COC(=O)c4ccccc4)nn3)CN2CC2CCCCC2)cc1,i,-20.4%
CCCn1c(N)c(C(=O)CSc2nnc(C)n2Cc2ccccc2)c(=O)n(C)c1=O,.,-13.5%
O=C(OCC(=O)N1CCOCC1)c1cccc(F)c1,-9.6%,-12.0%
CCOC(=O)c1cnn(-c2ccc(C)cc2)c1N,-15.3%,-16.8%
O=C(CSc1nnc(-c2ccccc2NC(=O)c2ccccc2)o1)OC1CCCCC1,-1.3%,-12.2%
CC(=O)N1CCCc2cc(S(=O)(=O)N3CCCC(C(=O)NCc4ccc(C)cc4)C3)ccc21 (configuration not stated),-14.2%,-15.0%
CC(=O)c1ccc(NC(=O)Nc2ccc(Cl)cc2)cc1,?,-27.4%

The list continues.
Compound,VACV mCherry inh,VACV Venus inh
Cc1cc(N/N=C/c2ccc(O)cc2O)nc(N2CCOCC2)n1,?,-22.2%
CCCCc1ccc(NC(=O)CN2C(=O)NC(Cc3ccccc3)C2=O)cc1 (configuration not stated),-14.1%,-12.5%
CC(=O)c1ccc(NC(=O)CCc2ccc(C)o2)cc1,-20.8%,?
Cc1cccc(-n2nc3c(c2NC(=O)c2ccco2)CS(=O)(=O)C3)c1C,-1.4%,-11.4%
COc1ccc2c(c1)NC(c1ccc(F)cc1)=NC(c1ccc(F)cc1)=N2,-10.5%,-5.6%
CCOC(=O)C1CCN(C(=O)CSC2=NCCS2)CC1,1.1%,0.8%
COc1ccc(S(=O)(=O)N2CCCCC2)cc1NS(=O)(=O)c1ccc(CNC(C)=O)cc1,i,-1.4%
COCOc1ccc(/C=C/C(=O)c2c(OCOC)cc(OCOC)c(CC=C(C)C)c2O)cc1OCOC,-11.5%,-6.0%
CCOC(=O)C1CCCN(C(=O)Cn2ncc3c(C)n(Cc4ccc(Cl)cc4)c(C)c3c2=O)C1 (configuration not stated),-6.5%,-15.8%
O=C(Nc1ccc(Cl)c(Cl)c1)C1=Cc2ccccc2OC1,.,?
CCCOc1ccc(C(=O)OCCN2CCCCC2)c(O)c1,-9.8%,-8.1%
O=C1COc2ccc(C(=O)c3ccccc3C(=O)O)cc2N1,-8.7%,-5.4%
CCCC(=O)Nc1ccc2c(c1)C(=O)N(C)C[C@@H](OC)[C@H](C)CN(Cc1ccc(-c3ccccn3)cc1)[C@@H](C)CO2,0.4%,-24.6%
CCCOc1ccc(-c2nc3c(c(=O)[nH]c(=O)n3Cc3ccccc3)n2CCO)cc1OCC,i,-14.5%
COc1ccccc1NC(=O)CSc1ncn(-c2ccccc2)n1,2.3%,-5.3%
O=c1cc(Br)c(O)c(Br)cc1Br,i,-10.4%
Nc1ccc(CNc2ncn[nH]2)cc1,-28.3%,5.5%
COc1ccc(/C=C/C(=O)c2ccc3ccccc3c2O)cc1CN1CCOCC1,-10.4%,0.1%
COc1ccc(NC(=S)NC(=NS(=O)(=O)c2ccc(Cl)cc2)c2ccccc2)cc1,-20.7%,-7.9%
COc1cccc(/C=C2\SC(=S)NC2=O)c1OS(=O)(=O)c1ccc(NC(C)=O)cc1,i,-2.6%
CCC(=O)N1C(C(=O)N2CCCC2)CSC1c1ccc(OC)cc1 (configuration not stated),17.7%,1.3%
O=C(NCC(c1ccc(Cl)cc1)N1CCCCC1)c1ccccc1F (configuration not stated),-10.3%,0.0%
CCOc1ccc(NC(=O)CN(C)C(=O)c2cn(-c3ccc(F)cc3)nc2-c2cccc(OC)c2)cc1OCC,-19.4%,?
Cc1cc(C)cc(NC(=O)COCc2cc(-c3ccc4c(c3)OCO4)on2)c1,-13.9%,-7.3%
Cc1ccc(C2=NN=C(NC(=O)CSc3nncn3C)SC2)cc1,i,-15.7%

Remaining list, next part:
Compound,VACV mCherry inh,VACV Venus inh
CC1CC(C)CN(C(=O)/C=C/c2ccc([N+](=O)[O-])s2)C1 (configuration not stated),?,?
COc1cccc(OCc2nc(-c3cccc([N+](=O)[O-])c3)no2)c1,-15.7%,3.2%
O=C(COC(=O)c1ccc(NS(=O)(=O)c2cccs2)cc1O)Nc1ccc(F)cc1,22.4%,6.6%
COc1ccccc1C(=O)C1CCCN(C(=O)CSc2ccccn2)C1 (configuration not stated),-20.7%,-14.0%
Cc1ccc(C2C(S(C)(=O)=O)=C(O)C(=O)N2c2ccccc2)cc1 (configuration not stated) (tested in a mixture with another compound),.,1.6%
O=C(O)CN1C(=O)SC(Nc2ccc(C(=O)O)cc2)C1=O (configuration not stated),-20.5%[1.46 µM],-3.4%
O=C1c2ccccc2C(=O)c2cc(S(=O)(=O)Nc3ccccc3)ccc21,-28.6%,-17.8%
Cc1ccc(NS(=O)(=O)c2ccc(NC(=O)c3cccs3)cc2)c(C)c1,-5.6%,-23.9%
Cc1ccc(N(C(=O)c2csnn2)C(C(=O)NC(C)(C)C)c2ccccn2)cc1 (configuration not stated),-3.3%,-17.3%
COc1ccccc1/C=N/n1c(C)nnc1-n1nc(C)cc1C,i,-13.3%
CCOC(=O)c1sc(-c2ccc(Br)cc2)cc1N,-24.9%,-8.9%
Cn1c(=O)c2c(nc(NCCNC(=O)c3ccco3)n2Cc2ccc(F)cc2)n(C)c1=O,0.3%,-1.6%
Cc1cccc(C(=O)NCC(=O)OCC(=O)c2ccc(Cl)s2)c1,-2.7%,-12.1%
COc1ccc(OC)c(-c2csc(NC(=O)C3=COCCO3)n2)c1,-0.9%,-21.5%
C=CC[C@@H](CC(=O)N(CCO)Cc1ccccc1)C(=O)N[C@H](COC(=O)[C@@H](CC=C)Cc1ccc(F)cc1)Cc1ccccc1,?,?
COc1ccc(C(=O)CN2CCN(c3ncccn3)CC2)cc1,3.2%,0.6%
Cc1ccc(S(=O)(=O)N2CCN(C(=O)CC(C)n3nc(C)c(Cl)c3C)CC2)cc1 (configuration not stated),-29.6%,-29.7%
COc1ccc(N2CCN(C(=O)c3cccn3-c3nnc(N4CCCC4)s3)CC2)cc1,-10.7%,-6.0%
CCn1c(SCC(=O)NC2CCCC2)nnc1C(C)NC(=O)c1ccccc1Br (configuration not stated),-6.3%,-5.7%
Cc1cc(C)c(S(=O)(=O)N2CCOC23CCN(S(C)(=O)=O)CC3)c(C)c1,-10.1%,-10.0%
COC(=O)CCC(=O)OC1(C)C(=O)C=C2C=C(C3CC3)N(CCCCO)C=C2C1=O (configuration not stated),i,-5.3%
COc1ccccc1C1/C(=C(/O)c2ccccc2)C(=O)C(=O)N1CC(C)C (configuration not stated),i,-15.1%
Cc1ccc(S(=O)(=O)NCC(=O)OCC(=O)NC2CCCCC2)cc1,i,-15.3%
O=C(c1ccc([N+](=O)[O-])o1)N1CCN(c2nc3ccc(F)cc3s2)CC1,i,-13.3%
Cc1ccc(N=N/C(=C\O)C(=O)c2ccc(Cl)cc2)cc1,-23.1%,-25.5%

The listing continues:
Compound,VACV mCherry inh,VACV Venus inh
CCCc1nnc(NC(=O)CC(C)c2ccccc2)s1 (configuration not stated),-21.1%,-13.7%
CC(C)c1cc(C(=O)OCC(=O)NC(=O)NCc2ccco2)c(O)c(C(C)C)c1,?,?
Cc1ccc(NC(=O)C(=O)NCC2CCCN2S(=O)(=O)c2cccs2)cc1C (configuration not stated),-2.7%,-20.2%
COc1cc(NC(=O)COC(=O)CSc2ccccc2F)c(C)cc1[N+](=O)[O-],-25.3%,-8.3%
CC1CCc2cc(F)ccc2N1C(=O)c1ccncc1 (configuration not stated),-12.6%,-8.7%
C/C=C/c1cc(CN2CCN(c3ccc(OC)cc3)CC2)c(O)c(OC)c1,?,?
